# Bioassay records from PubChem BioAssay.
# KCNQ2 enhance: potentiators of rat KCNQ2 potassium channel; Potassium voltage-gated channel subfamily KQT member 2 (Rattus norvegicus), O88943; CHO-K1 KCNQ2, FluxOR thallium flux fluorescence; stronger effect = higher value; B-score at 10 µM; actives 0.54% (n = 310,000); AID 2239, 2010;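 active = fluorescence ratio B-score at least 3 SD of library B-scores, with initial fluorescence B-score within 3 SD, cut at about 5.3 in these data; same plate scores as AID 2156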;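 also: B-score of peak minus minimum over baseline fluorescence ratio after K+ and Tl+ stimulus; positive B-score means potentiation of KCNQ2 with more thallium influx and brighter signal; only the inactives scoring about 0 or higher are listed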
# Target sequence (O88943 whole entry, looked up): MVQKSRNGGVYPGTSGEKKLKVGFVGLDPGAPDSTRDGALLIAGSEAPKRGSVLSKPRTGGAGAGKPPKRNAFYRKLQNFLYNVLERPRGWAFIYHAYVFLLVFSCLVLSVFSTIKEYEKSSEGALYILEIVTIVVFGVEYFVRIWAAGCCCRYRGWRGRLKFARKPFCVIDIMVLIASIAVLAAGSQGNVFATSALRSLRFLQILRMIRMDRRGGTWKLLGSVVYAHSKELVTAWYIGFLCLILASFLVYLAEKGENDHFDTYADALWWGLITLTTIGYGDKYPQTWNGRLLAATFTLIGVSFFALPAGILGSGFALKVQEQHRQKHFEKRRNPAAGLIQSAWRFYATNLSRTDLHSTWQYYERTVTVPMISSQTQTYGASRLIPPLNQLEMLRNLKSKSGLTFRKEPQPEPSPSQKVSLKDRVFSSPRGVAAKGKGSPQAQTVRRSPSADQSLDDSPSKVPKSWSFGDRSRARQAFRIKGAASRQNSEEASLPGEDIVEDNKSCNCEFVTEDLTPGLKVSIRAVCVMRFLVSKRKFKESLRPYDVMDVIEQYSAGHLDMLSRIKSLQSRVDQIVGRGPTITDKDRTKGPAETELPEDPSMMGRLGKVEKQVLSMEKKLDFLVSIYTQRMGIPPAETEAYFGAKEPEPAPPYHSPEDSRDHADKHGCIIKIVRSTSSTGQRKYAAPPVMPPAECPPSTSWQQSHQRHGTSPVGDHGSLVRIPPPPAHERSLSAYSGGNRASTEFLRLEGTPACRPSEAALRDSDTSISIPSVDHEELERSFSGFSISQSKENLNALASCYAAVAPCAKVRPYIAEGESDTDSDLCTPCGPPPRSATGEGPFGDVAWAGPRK
# KCNQ2 enhance baseline: second read-out of KCNQ2 enhance, no call of its own (marks repeat the call); B-score; compound at 10 µM; measured here: initial fluorescence intensity artifact check;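 brightness before thallium and not channel activity; 0 = typical well and far values either way flag optical interference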
# Starred values were filed as active, the others as inactive. The list is partial (hit frequency here may not be typical).
SMILES,KCNQ2 enhance,KCNQ2 enhance baseline
Cc1ccccc1OCCNc1cc(N2CCN(CCO)CC2)ccc1[N+](=O)[O-],1,-0.83
Cc1cccc(-n2nnnc2SCC(=O)Nc2cccc(S(N)(=O)=O)c2)c1,0.16,-1.13
CCCC(c1nnnn1CCOC)N1CCN(c2cccc(OC)c2)CC1 (centres undefined),0.49,0.83
Cn1c(=O)c2ncn(CC(=O)NCCC3=CCCCC3)c2n(C)c1=O,0.48,-0.96
O=C(NCc1ccccc1Cl)c1cnccn1,1.22,1.76
O=C1CCN(Cc2cccnc2)CCN1[C@H](CO)Cc1ccccc1,0.44,-0.18
O=C(CSCc1cccc(CSCC(=O)Nc2ccccc2)n1)Nc1ccccc1,0.21,1.24
COc1cccc(C(=O)Nc2ccc(N3CCCC3)cc2)c1,0.18,1.08
O=C(c1ccccc1)N1CCN(S(=O)(=O)N2CCCCCC2)CC1,0.57,-1.41
O=C(c1ccc(Cl)cc1)c1cc([N+](=O)[O-])ccc1N1CCOCC1,0.11,1.45
CCOC(=O)N/N=C/c1cc(C)n(-c2cccc3ccccc23)c1C,0.16,-0.96
CCCc1cc(=O)[nH]c(SCc2nc3ccccc3o2)n1,0.4,-0.06
Cc1cccc(NS(=O)(=O)c2ccc3c(c2)oc(=O)n3C)c1C,0.04,0.09
COc1cccc(C(=O)CC(=O)C(=O)Nc2ccc(C)cc2Cl)c1,1.49,-0.08
O=C(CNC(=O)c1ccc(F)cc1)N/N=C/c1cccnc1,0.42,-0.08
Cc1ccc(C)c(S(=O)(=O)Nc2ccc(O)c3ccccc23)c1,2.98,0
CC(C)c1ccc(NC(=O)NCc2ccc(F)cc2)cc1,0.17,0.02
CCC1SC2=NCN(c3ccccc3)CN2C1=O (centres undefined),0.51,-0.09
CNC(=S)c1cc(C(C)(C)C)c(O)c(C(C)(C)C)c1,0.41,0.58
CN(C(=O)COC(=O)C1=COCCO1)c1c(N)n(Cc2ccccc2)c(=O)[nH]c1=O,0.31,-0.66

# Among those listed so far, these contain two or more sulfur atoms:
SMILES,KCNQ2 enhance,KCNQ2 enhance baseline
Cc1cccc(-n2nnnc2SCC(=O)Nc2cccc(S(N)(=O)=O)c2)c1,0.16,-1.13
O=C(CSCc1cccc(CSCC(=O)Nc2ccccc2)n1)Nc1ccccc1,0.21,1.24

# Carrying on:
SMILES,KCNQ2 enhance,KCNQ2 enhance baseline
CSCC[C@H](NC(=O)Nc1ccc(C)cc1)C(=O)O,0.5,-0.4
Cc1ccc(S(=O)(=O)N2CC(O)C2)cc1,1,-0.47
CC(=O)N/C(=C/c1ccc2c(c1)OCO2)C(=O)Nc1ccccc1,0.33,0.58
Cc1ccc(C(=O)NC2CC(=O)N(c3ccc4c(c3)OCCO4)C2)cc1[N+](=O)[O-] (centres undefined),0.7,0.4
c1ccc(CN2CCOCC2)cc1,1.11,-0.68
O=C(CN1CCCCC1)N1c2ccccc2CCc2ccccc21,0.49,-0.55
CC(=O)OC1C(N2CCCCC2)c2c(ccc(/C=C/C(=O)N3CCCCC3)c2O)OC1(C)C (centres undefined),0.02,-1.31
CCCC(=O)NC(Nc1ccccc1F)C(Cl)(Cl)Cl (centres undefined),0.26,-0.1
O=C1CN(C(=O)c2cccc(Br)c2)c2ccccc2N1,0.79,2.14
COc1cc2c(cc1OC)-c1cc(N3CCc4ccccc43)nc(=O)n1CC2,0.31,0.02
CCC(=O)c1ccc(OCCSc2ncccn2)cc1,0.35,-0.02
CSC1=NCCN1C(=O)COc1ccccc1,2.47,0.01
O=C(N/N=C/c1ccccn1)c1ccc(NC(=O)c2ccc(F)cc2)cc1,1.56,0.08
c1ccc(-c2nnc(-c3ccccc3)o2)cc1,0.07,0.13
O=C(Nc1ccc([N+](=O)[O-])cc1)N1CCN(C(=O)C2CCCO2)CC1 (centres undefined),0.05,-1.53
CC(=O)Nc1ccc(S(=O)(=O)NC2CC2)cc1,0.26,-0.22
CC(C)N1C(=S)N(Cc2ccco2)C(=O)C1CC(=O)Nc1ccccc1 (centres undefined),2.73,-1.31
COc1ccc(NC(=O)CNS(=O)(=O)c2ccccc2)cc1Cl,0.92,-1.01
CCCC(=O)NC(=S)Nc1ccc(NC(=O)c2cccs2)cc1,0.15,-0.06
O=C(CSc1nc(=O)n(CCCN2CCOCC2)c2c1CCCC2)Nc1ccc(F)cc1F,0.01,0.99
O=C(OCc1cncs1)c1cccs1,1.51,-0.5
CC(C)(C)C(=O)Nc1sc2c(c1C(=O)Nc1ccccn1)CCCC2,0.92,-0.35
O=C(C[n+]1ccccc1)Nc1cc(C(F)(F)F)ccc1Cl,0.47,-0.07
CCCC(=O)N1CCN(c2ccc(NC(=O)c3ccco3)cc2)CC1,1.15,0.23
COC(=O)c1cc(CNC(=O)c2ccc(O)c(Cl)c2)ccc1OC,0.8,0.12
O=[N+]([O-])c1ccccc1NCc1c(O)ccc2ccccc12,1.13,-0.39
Fc1ccccc1CSc1ncn[nH]1,1.03,0.72
Cc1cc(C(=O)Oc2ccccc2C(=O)O)c(C)o1,0.46,0.57
O=C(O)c1ccnc(Cl)c1,0.41,0.95
COC(=O)CCCCCN1C(=O)NC(c2ccccc2)C(C(=O)OCc2ccccc2)=C1C (centres undefined),0.18,-0.8
CCc1nnc(NC(=O)C2CCCN(S(=O)(=O)c3ccccc3)C2)s1 (centres undefined),0.65,0.59
COC(=O)C1(Cc2cc(-c3ccc([N+](=O)[O-])cc3)no2)CCN(C(=O)OC(C)(C)C)CC1,0.04,0.18
CCN1CCN(C(=O)CCc2nnc(CCCCc3ccccc3)o2)[C@@H](C)C1=O,0.55,-0.63
COC(=O)CSc1nc(-c2ccc(F)cc2)cc(C(F)(F)F)n1,0.14,-1.54
Cc1cc(C)cc(OCC(=O)NNC(=O)CCC(=O)NCc2ccccc2)c1,0.39,0.59
CCc1ccc(N2CC(C)Cn3c2nc2c3c(=O)[nH]c(=O)n2C)cc1 (centres undefined),0.7,0.05
Cc1nc(/N=C\c2ccc(N(C)C)cc2)sc1C,0.05,0.99
COc1cccc(C2C(C#N)=C(N)SC(c3ccccc3)C2[N+](=O)[O-])c1 (centres undefined),0.21,-1.54
N#Cc1ccc(NC(=O)CCc2nc3ccccc3s2)cc1,0.11,-0.19
O=C(O)c1ccc(N/N=C/c2cc3cc4c(cc3nc2Cl)OCCO4)cc1,0.02,0.91
O=C(O)CSCc1ccc(C(=O)O)o1,0.56,0.4
CCOC(=O)C1CCCN(C(=O)c2ccccc2NC(C)=O)C1 (centres undefined),0.03,1.69
Cn1c(N)c(N=Nc2ccc(S(N)(=O)=O)cc2)c(=O)n(C)c1=O,0.33,2.43
COc1ccc(C2CC(=O)C=C(NCC3CCCO3)C2)cc1 (centres undefined),0.04,-3.29
Cc1ccc(C(=O)NCCc2cccs2)cc1,0.5,0.38
CCCCCCc1cc2cc(S(=O)(=O)c3ccc(Cl)cc3)c(=O)oc2cc1O,1.16,-1.2
Cn1ncc2c(NNC(=O)Cc3cccc4ccccc34)ncnc21,2.15,-2.06
Cc1cc(NC(=O)c2c(F)cccc2Cl)no1,0.12,-0.05
CCCC(=O)Nc1ccc2c(c1)nc(CN1CCCCC1)n2C,0.9,0.04
COc1ccc(CCN2C(=O)CS/C2=N\NC(=O)c2cccs2)cc1OC,0.2,-0.64
# The listing continues:
SMILES,KCNQ2 enhance,KCNQ2 enhance baseline
CCOC(=O)C1CCN(C(=O)CNC(=O)c2nn(-c3ccc(OC)cc3)c(=O)c3ccccc23)CC1,1.43,-2.05
Cc1ccccc1OCC(=O)NCC(=O)N/N=C/c1ccc(Br)o1,0.11,0.03
CC(=O)N1N=C(c2ccccc2O)CC1c1cccs1 (centres undefined),0.03,0.02
O=C(CN(Cc1ccccc1)S(=O)(=O)c1ccc2c(c1)OCCO2)Nc1ccc2c(c1)OCCO2,0.12,0.09
COc1ccccc1CNC(=O)C1CCN(S(=O)(=O)c2ccc(-n3cnnn3)cc2)CC1,0.4,1.39
CCSc1nnc(NC(=O)C2CCCCC2C(=O)OCC(F)(F)C(F)F)s1 (centres undefined),0.62,-0.05
Cc1ccsc1C(=O)Nc1n[nH]c(C(F)(F)F)n1,0.13,-0.12
CCOC(=O)c1nc(Nc2ccccc2C)c2ccccc2n1,0.67,-0.62
O=C(NC1CC1)C1CCN(S(=O)(=O)c2ccc(Cl)cc2)CC1,0.98,-0.73
CC1Sc2ccc(S(=O)(=O)CCC(=O)N3CCCCC3)cc2NC1=O (centres undefined),2.05,0.64

# Not a retest: an excerpt of the list.
SMILES,KCNQ2 enhance,KCNQ2 enhance baseline
Cc1ccccc1OCCNc1cc(N2CCN(CCO)CC2)ccc1[N+](=O)[O-],1,-0.83
Cc1cccc(-n2nnnc2SCC(=O)Nc2cccc(S(N)(=O)=O)c2)c1,0.16,-1.13
CCCC(c1nnnn1CCOC)N1CCN(c2cccc(OC)c2)CC1 (centres undefined),0.49,0.83
Cn1c(=O)c2ncn(CC(=O)NCCC3=CCCCC3)c2n(C)c1=O,0.48,-0.96
O=C(NCc1ccccc1Cl)c1cnccn1,1.22,1.76
O=C1CCN(Cc2cccnc2)CCN1[C@H](CO)Cc1ccccc1,0.44,-0.18
O=C(CSCc1cccc(CSCC(=O)Nc2ccccc2)n1)Nc1ccccc1,0.21,1.24

# Continued.
SMILES,KCNQ2 enhance,KCNQ2 enhance baseline
CCOC(=O)N=S(N)(=O)c1ccccc1 (centres undefined),1.3,-0.65
COc1cccc(CNC(=O)C2CCN(c3nnc(N4CCCC4=O)s3)CC2)c1,1.11,-0.01
C=CC(=O)NC1CC2CCC1(C)C2(C)C (centres undefined),0.05,0.98
CCSc1nc2ccccc2n1C(=O)c1ccc(S(=O)(=O)N2CCCCCC2)cc1,0.62,-0.18
Cc1cccc(NC(=O)COc2coc(CN3CCN(Cc4ccccc4)CC3)cc2=O)c1,0.61,-0.89
COc1ccc(-n2c(=S)[nH]c3cc(C(=O)Nc4cccc(C)c4)ccc3c2=O)cc1,0.11,0.89
CCN(C(=O)COC(=O)c1cncc(Br)c1)C1CCS(=O)(=O)C1 (centres undefined),0.11,-1.18
O=C(Nc1ccccc1)C1CCCN1C(=O)NCc1ccccc1 (centres undefined),1.06,-0.1
C=CCNc1nc(NCCN2CCOCC2)nc(N2CCOCC2)n1,0.04,-1.45
CC(C)c1ccc(NC(=O)NN2CCOCC2)cc1,1.06,0.2
COC(=O)c1ccc(NC(=O)CSc2nnnn2C2CCCCC2)cc1,0.5,0.05
COc1ccc(C2COC(=O)C2=N)c(NC(=O)c2ccc(Cl)cc2)c1 (centres undefined),0.02,-2.28
O=C(Nc1ccc(F)cc1)c1nsc(Cl)c1Cl,0.4,0.53
O=c1c2cn(Cc3ccc(F)cc3)c3ccc(F)cc3c-2nn1Cc1ccc(F)cc1,0.41,-0.28
Cc1cc(SCC(=O)Nc2c(C)n(C)n(-c3ccccc3)c2=O)nc2ccccc12,0.23,-2.05
CC(NC(=O)C1CCC1)c1ccc(Br)cc1 (centres undefined),0.98,0.53
O=C(CCC(=O)Nc1ccccc1Cl)N/N=C/c1c[nH]c2ccccc12,0.13,-0.95
Cc1c(NC(=O)c2cc(=O)[nH]c3ccccc23)c(=O)n(-c2ccccc2)n1C,1.9,0.58
COC(=O)c1ccc(C(=O)NC2CC(C)(C)Cc3c2cnn3-c2ccc(F)cc2)nc1 (centres undefined),2.47,-0.49
COc1ccc(N)c2c1C(=O)c1ccccc1C2=O,1.18,-0.01
CC1=C(C(=O)OCC2CCCO2)C(c2coc3ccc(Cl)cc3c2=O)C2=C(CCCC2=O)N1 (centres undefined),1.55,0.02
CC(C)(C)SCCNC(=O)c1cccc([N+](=O)[O-])c1,0.08,1.88
CC(=O)N(C(C)=O)n1c(C)nc2sc3c(c2c1=O)CCCC3,1.26,-2.73
O=C(c1cccc(Cl)c1)N1CCN(CCCc2ccccc2)CC1,1.04,0.07
COc1ccc(NC(=O)c2sccc2C)cn1,2.56,-0.76
c1ccc(Cn2nnc3c(NCC4CCCO4)ncnc32)cc1 (centres undefined),1.66,0.3
O=C(CSc1nnc(NC2CCCCC2)s1)NN1C(=O)NC2(CCCCC2)C1=O,1.14,0.51
Cc1ccc(Cl)cc1NC(=S)N(CCCN1CCN(C)CC1)Cc1cccs1,0.66,-2
CC1CCN(S(=O)(=O)c2ccc(NC(=O)CN3CCN(c4ccccc4)CC3)cc2)CC1,0.41,-1.39
COc1cccc(NC(=O)CCS(=O)(=O)c2cc3c(cc2Cl)NC(=O)CO3)c1,0.91,0.01
FC(F)(F)C(F)(F)c1nnc2ccc(-n3ccnc3)nn12,1.49,0
CCCC(=O)NC(Nc1ccc(S(=O)(=O)Nc2ncccn2)cc1)(C(=O)OCC)C(F)(F)F (centres undefined),0.29,-0.98
Cc1c(CCO)c(=O)n2c([nH]c3ccccc32)c1C#N,0.84,-1.09
O=C(OCC(=O)N1CCCC1)c1c(Cl)cccc1Cl,0.62,0.7
Cc1ccc(NC(=S)Nc2cccc3cnccc23)cc1,1.46,-1.16
CCOC(=O)CSc1nc2sc(C(=O)O)c(C)c2c(=O)[nH]1,0.47,-0.37
CCc1nc(SCC(=O)NCCc2ccccc2)n[nH]1,1.33,0.24
CC(=O)OC1OCCOC1NC(=S)Nc1ccc(C)cc1 (centres undefined),0.45,0.46
COc1ccc(Br)cc1C(=O)Nc1nnn(C)n1,1.39,-2.35
CCc1c(C)[nH]c2nc3ccccc3n2c1=O,0.64,1.58
Cc1ccc(S(=O)(=O)NCCC(=O)NCc2cccnc2)cc1,0.34,1.93
COc1cccc(C(=O)COc2ccc3c(C)cc(=O)oc3c2)c1,0.01,-1.29
O=C(CSc1nnnn1C1CCCC1)c1ccc2c(c1)OCCO2,0.84,0.46
CCCCc1ccc(-c2nc(N)n[nH]2)cc1,1.97,2.67
